miR-21 reporter – miR-21 reporter, rising signal | HeLa miR-21 FLuc reporter, luciferase, 48 h | Potency, µM (top dose mostly 38.3 µM), without a hit: at the top dose reporter change, positive = more light | 340,000 tested, under 10 active | AID 2288; active = well fitted rising curve with a large enough effect; inconclusive = small, poorly fitted or top-dose-only effect; inactive = no such curve, though single readings can be large or run the other way;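 also: % of control where 0% means no effect; miR-21 action dims this reporter so a rising signal means less miR-21 action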
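Luminescence from a firefly luciferase reporter carrying a miR-21 binding site downstream, stably expressed under a CMV promoter in HeLa cells that make miR-21 endogenously, reports miRNA modulation after 48 h compound exposure up to approximately 40uM final.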
* = called active by the depositor; ? = inconclusive. These rows are one share of the data; rates above refer to the full screens.

SMILES | miR-21 reporter
Cc1ccc(C)c(N2CCN(C(=O)C3CCCN(S(=O)(=O)c4ccc5c(c4)oc(=O)n5C)C3)CC2)c1 (stereo not drawn) | 12%
CC1CCCN(Cc2c(O)ccc3c(=O)c(Oc4ccccc4Cl)c(C(F)(F)F)oc23)C1 (stereo not drawn) | 0%
Cc1coc2cc3oc(=O)c(CC(=O)NCc4ccccc4)c(C)c3cc12 | 18%
COc1ccc(C2CC(=O)c3cc(-c4nc(-c5cccc([N+](=O)[O-])c5)cs4)c(=O)n(-c4cc(C)cc(C)c4)c3C2)cc1 (stereo not drawn) | -1%
Cc1cccc(S(=O)(=O)c2cn(Cc3ccccc3)c3cc(N4CCOCC4)c(F)cc3c2=O)c1 | 5%
CC1CCCCN1C(=O)c1ccc2c(c1)N(Cc1ccc(F)cc1)C(=O)c1ccccc1S2(=O)=O (stereo not drawn) | 2%
Cc1ccc(C)c(NC(=O)CN(CCc2ccccc2)S(=O)(=O)c2ccccc2)c1 | 10%
Cc1cccc(N2CCN(C(=O)Cn3nc(Cc4cccnc4)c4ccccc4c3=O)CC2)c1C | ?
COc1cc(OC)cc(-c2nnc(SCC(=O)N3CCC(C)CC3)o2)c1 | -2%
CC(C)COc1ccc(C(=O)N2CCN(CCc3ccncc3)CC2)cc1 | 1%
Cc1c(Cl)cccc1NC(=O)Nc1nnc(N(C)Cc2ccccc2)s1 | 7%
CCOc1ccc(-n2c(SCC(=O)N3CCCc4ccccc43)nc3c([nH]c4ccccc43)c2=O)cc1 | -2%
COc1cccc(NC(=O)N(CCC(C)C)C2CCN(C(C)C)CC2)c1 | -11%
O=C(CCC(=O)N1CC2CCCN2c2ccccc21)NCc1ccccc1Cl (stereo not drawn) | ?
O=C(Nc1ccc(OCc2cc(=O)n3c4c(sc3n2)CCCC4)cc1)c1cccc(F)c1 | -8%
COc1cccc(CNC(=O)Cc2c(C)c3ccc(OC)c(C)c3oc2=O)c1 | 2%
COc1cc(Nc2nc(SCC(=O)c3ccc(Br)cc3)nc3ccccc23)cc(OC)c1 | 22%
O=C(COc1ccccc1Cl)Nc1nc(-c2ccc(F)cc2)ns1 | 2%
CCOc1ccccc1C(=O)NC1(C(F)(F)F)C(=O)Nc2c1c(=O)[nH]c(=O)n2-c1ccccc1 (stereo not drawn) | 5%
CCOC(=O)c1cc(-c2ccccc2)n(CCC(=O)NCCc2ccc(C)cc2)c1C | 3%
Cc1cccc(-c2nc(SCC(=O)NCC3CCCO3)c3c(=O)n(C)c(=O)n(C)c3n2)c1 (stereo not drawn) | 0%
NC(=O)CSc1nc2c(oc3ccccc32)c(=O)n1Cc1ccccc1 | -2%
CCCOc1ccc(-c2cccc(NS(=O)(=O)c3cc(OC)ccc3OC)c2)nn1 | -4%
COc1ccc(-n2c(SCC(=O)Nc3ccc(Cl)c(C)c3)nc3n[nH]c(C)c3c2=N)cc1 | 9%
Cc1ccc(C(=O)CSc2nnc3ccc4ccccc4n23)cc1 | -38%
CCOc1ccccc1NC(=O)Cn1c(=O)n(Cc2ccccc2)c(=O)c2c3c(sc21)CN(C(C)=O)CC3 | 8%
CCCNC(=O)CN1C(=O)COc2ccc(S(=O)(=O)N3CCC(C)CC3)cc21 | 3%
Cc1cccc(N2CCN(C(=O)c3cnn(-c4ccccc4Cl)c3C3CCN(C(=O)OC(C)(C)C)CC3)CC2C)c1 (stereo not drawn) | -1%
CCCCNC(=O)c1cccc(-n2c(C)nc3cccnc32)c1 | -5%
COc1cccc(C2CC(=O)Nc3cc4c(cc32)OCO4)c1OC(C)C (stereo not drawn) | ?
COc1ccc(-c2noc(CCCC(=O)Nc3cccc(Cl)c3C)n2)cc1 | -2%
Cc1oc2ncnc(N3CCCCC3)c2c1C(=O)NCC1CCN(Cc2cccc(F)c2)CC1 | -1%
O=C(Nc1ccccc1F)C(c1ccccc1)N1Cc2ccccc2C1=O (stereo not drawn) | -8%
CCOCCc1nn2c(=O)cc(COC(=O)c3cccs3)nc2s1 | -8%
COCCn1c(SCC(=O)Nc2cc(Cl)ccc2OC)nc2c([nH]c3ccccc32)c1=O | -13%
CCOC(=O)c1c(NC(=O)COc2cc(C)ccc2C(C)C)sc(C)c1C | -3%
COc1cccc(C(=O)Oc2c(Sc3ccc(C)cc3)c(C)nn2C(C)(C)C)c1OC | ?
CCC1=Nc2cc(C(=O)NCCc3ccc(OC)c(OC)c3)ccc2Sc2ccccc21 | 16%
Cc1cccc(NC(=O)N2CCC(CN3CCC(C)CC3)CC2)c1C | -2%
CNc1oc(/C=C/c2cc(OC)c(OC)c(OC)c2)nc1C#N | 2%

A draw from above in order of heavy-atom count, low to high:
SMILES | miR-21 reporter
CNc1oc(/C=C/c2cc(OC)c(OC)c(OC)c2)nc1C#N | 2%
Cc1ccc(C(=O)CSc2nnc3ccc4ccccc4n23)cc1 | -38%
Cc1cccc(NC(=O)N2CCC(CN3CCC(C)CC3)CC2)c1C | -2%
COc1cc(OC)cc(-c2nnc(SCC(=O)N3CCC(C)CC3)o2)c1 | -2%
Cc1coc2cc3oc(=O)c(CC(=O)NCc4ccccc4)c(C)c3cc12 | 18%
O=C(CCC(=O)N1CC2CCCN2c2ccccc21)NCc1ccccc1Cl (stereo not drawn) | ?
CCCOc1ccc(-c2cccc(NS(=O)(=O)c3cc(OC)ccc3OC)c2)nn1 | -4%
CCOC(=O)c1cc(-c2ccccc2)n(CCC(=O)NCCc2ccc(C)cc2)c1C | 3%
CC1CCCN(Cc2c(O)ccc3c(=O)c(Oc4ccccc4Cl)c(C(F)(F)F)oc23)C1 (stereo not drawn) | 0%
CCOc1ccccc1C(=O)NC1(C(F)(F)F)C(=O)Nc2c1c(=O)[nH]c(=O)n2-c1ccccc1 (stereo not drawn) | 5%
Cc1cccc(S(=O)(=O)c2cn(Cc3ccccc3)c3cc(N4CCOCC4)c(F)cc3c2=O)c1 | 5%
Cc1ccc(C)c(N2CCN(C(=O)C3CCCN(S(=O)(=O)c4ccc5c(c4)oc(=O)n5C)C3)CC2)c1 (stereo not drawn) | 12%
CCOc1ccc(-n2c(SCC(=O)N3CCCc4ccccc43)nc3c([nH]c4ccccc43)c2=O)cc1 | -2%
CCOc1ccccc1NC(=O)Cn1c(=O)n(Cc2ccccc2)c(=O)c2c3c(sc21)CN(C(C)=O)CC3 | 8%
Cc1cccc(N2CCN(C(=O)c3cnn(-c4ccccc4Cl)c3C3CCN(C(=O)OC(C)(C)C)CC3)CC2C)c1 (stereo not drawn) | -1%
COc1ccc(C2CC(=O)c3cc(-c4nc(-c5cccc([N+](=O)[O-])c5)cs4)c(=O)n(-c4cc(C)cc(C)c4)c3C2)cc1 (stereo not drawn) | -1%

New compounds follow.
SMILES | miR-21 reporter
CCOc1ccccc1NC(=O)CSc1nnc(N)s1 | -5%
Cc1ccc2cc3cc(C(=O)N4CCN(c5ccccc5)CC4)oc3nc2c1 | -5%
CC(=O)c1ccc(NC(=O)Cn2nc(N3CCN(c4ccccc4)CC3)ccc2=O)cc1 | -11%
CCCN(CCC)CCCNC(=O)Cn1ncc2c3ccccc3n(Cc3ccccc3)c2c1=O | 0%
CCN(CC)C(=O)Cn1cc(SCC(=O)Nc2cccc(C)c2)c2ccccc21 | 5%
O=C(CCC1N=C2c3ccccc3N=C(SCc3ccc(F)cc3)N2C1=O)NCc1ccc(F)cc1 (stereo not drawn) | 27%
CCCCC(=O)OCc1cc(=O)n2nc(C3CCCCC3)sc2n1 | -12%
CCCOc1ccc(-c2nonc2NC(=O)c2cc(OC)c(OC)c(OC)c2)cc1OCCC | -9%
CC(=O)N1CCc2cc(CNC(=O)Nc3ccccc3C(F)(F)F)ccc21 | -22%
COc1ccc(N2CC(NC(=O)COc3ccc(F)cc3)CC2=O)cc1OC (stereo not drawn) | -3%
Cc1cccc2c1-c1sc(C(=O)NCCCN3CCN(c4cccc(Cl)c4)CC3)cc1CO2 | ?
CCC(C(=O)NCCc1ccc(SC)cc1)n1nc(C)c2sc3ccccc3c2c1=O (stereo not drawn) | -41%
Cc1c(NC(=O)Nc2ccc(Br)cc2F)sc2nc3n(c(=O)c12)CCC(C)CC3 (stereo not drawn) | 1%
Cc1cccc(CCNC(=O)c2nc(-c3ccc(Cl)cc3)n3c2CCCCC3)c1 | 14%
O=S(=O)(Nc1nc2n(n1)C(c1ccc(F)cc1)C=C(c1ccc(Cl)cc1)N2)c1ccccc1 (stereo not drawn) | -47%
CCOC(=O)C1CCCN(C(=O)c2nn(-c3ccc(C)cc3)c(=O)n(C)c2=O)C1 (stereo not drawn) | -3%
N#Cc1nc(/C=C/c2ccc(F)cc2)oc1N1CCCCCC1 | -17%
CN(CC(=O)Nc1ccc(Cl)cc1F)S(=O)(=O)c1ccc2c(c1)n(C)c(=O)c(=O)n2C | 0%
COc1ccccc1/C=C(\C#N)C(=O)NCC1CCCO1 (stereo not drawn) | -1%
Cc1ccc(-c2cc3ncc4c(n3n2)-c2cc(F)ccc2OC4)cc1 | -4%

Next part; it opens with the 2 that closed the last part.
SMILES | miR-21 reporter
COc1ccccc1/C=C(\C#N)C(=O)NCC1CCCO1 (stereo not drawn) | -1%
Cc1ccc(-c2cc3ncc4c(n3n2)-c2cc(F)ccc2OC4)cc1 | -4%
CCOC(=O)C1CCN(C(=O)c2ccc3c(c2)sc2nc(-c4ccc(C)cc4)cn23)CC1 | -8%
Cc1cccc(C(=O)N2CCc3cc(CNC(=O)c4ccnn4C)ccc32)c1 | ?
CCN(CC)S(=O)(=O)c1ccc2c(c1)N(CC(=O)NCCc1ccccc1)C(=O)CO2 | -22%
COc1ccc(S(=O)(=O)N2CCC(N3CCN(Cc4ccc(F)cc4)C(=O)C3=O)CC2)cc1 | 2%
Cc1cccc(NC(=O)C2CCCN(S(=O)(=O)c3ccc4c(c3)oc(=O)n4C)C2)c1C (stereo not drawn) | 0%
COc1ccc(CNC(=O)c2cnc(N3CCCC3)nc2C)cc1 | 2%
Cc1oc(-c2ccccc2)nc1CNC(=O)NC1CCCCC1 | 6%
Cc1cc(C(F)F)n2nc(C(=O)Nc3ccc(C(C)C)cc3)nc2n1 | -5%
COc1ccccc1C(=O)Nc1nnc(SCc2cc(=O)c3ccccc3[nH]2)s1 | 0%
CC(Oc1ccccc1)C(=O)Nc1ccccc1C(=O)OCc1cc(=O)n2nc(C(C)C)sc2n1 (stereo not drawn) | 2%
O=C(COc1ccccc1)NCCc1csc(-c2ccc(Cl)cc2)n1 | -6%
COc1ccc(-c2nnc(SCC(=O)N3CCC(C)CC3)o2)cc1 | -11%

Screens (PubChem BioAssay)
